Assay outcomes from PubChem BioAssay.
KCNQ2 inh: KCNQ2 potassium channel inhibitors, primary screen, cell-based, CHO-K1, FluxOR thallium flux, B-score (AID 2156) | O88943 | 20 min; hits give low values; only compounds with negative scores are shown here; some inactives read as strong as hits | B-score at 10 µM | actives 1.1% (n = 310,000);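 active = fluorescence ratio B-score at most minus 3 library SDs, with starting brightness B-score within 2 library SDs, cut at about -5.5 in these data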
Target sequence (O88943 whole entry, looked up): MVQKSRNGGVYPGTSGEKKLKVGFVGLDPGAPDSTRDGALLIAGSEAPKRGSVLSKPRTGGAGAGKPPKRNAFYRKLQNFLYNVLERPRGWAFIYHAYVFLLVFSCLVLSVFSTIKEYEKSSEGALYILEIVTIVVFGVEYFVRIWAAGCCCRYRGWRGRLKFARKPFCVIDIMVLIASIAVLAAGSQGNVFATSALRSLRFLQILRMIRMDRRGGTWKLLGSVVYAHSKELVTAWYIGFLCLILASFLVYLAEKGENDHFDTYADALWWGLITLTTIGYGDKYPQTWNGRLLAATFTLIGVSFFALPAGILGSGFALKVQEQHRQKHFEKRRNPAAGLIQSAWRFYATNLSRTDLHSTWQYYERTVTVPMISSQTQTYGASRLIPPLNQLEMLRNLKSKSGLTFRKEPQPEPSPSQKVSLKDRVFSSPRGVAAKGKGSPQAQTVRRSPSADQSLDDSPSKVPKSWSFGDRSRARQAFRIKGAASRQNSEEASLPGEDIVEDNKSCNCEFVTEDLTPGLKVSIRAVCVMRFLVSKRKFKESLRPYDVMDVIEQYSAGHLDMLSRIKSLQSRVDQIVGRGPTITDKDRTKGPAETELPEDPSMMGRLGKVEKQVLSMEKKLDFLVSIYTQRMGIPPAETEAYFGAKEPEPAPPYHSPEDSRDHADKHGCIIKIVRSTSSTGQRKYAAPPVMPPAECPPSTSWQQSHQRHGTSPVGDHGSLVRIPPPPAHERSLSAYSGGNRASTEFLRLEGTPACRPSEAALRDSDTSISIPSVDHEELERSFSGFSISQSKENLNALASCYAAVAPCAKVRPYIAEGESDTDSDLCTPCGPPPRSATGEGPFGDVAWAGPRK
KCNQ2 inh baseline: also measured in KCNQ2 inh; calls as there; B-score; measured here: initial fluorescence intensity artifact check;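 brightness before thallium and not channel activity; 0 = typical well and far values either way flag optical interference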
The depositor's hits bear a star; i = inactive. Not all compounds are listed, so the mix of outcomes need not match the whole.

Each structure is followed by: KCNQ2 inh baseline, KCNQ2 inh
- COc1cc(C(=O)Nc2nncs2)cc(OC)c1OC
  0.06, i
- O=c1[nH]cnc2c([N+](=O)[O-])cccc12
  -0.5, i
- CCOC(=O)CSc1cc(C)c(C#N)c2nc3ccccc3n12
  -1.5, i
- O=C(c1cnn2c(-c3ccccc3)cc(-c3ccccc3)nc12)N1CCN(Cc2ccccc2)CC1
  -0.72*, -8.9*
- O=C(Nc1cc(Cl)ccc1-n1cncn1)c1ccc(Br)o1
  -0.88, i
- CSc1nc(SCC(=O)NCc2ccco2)c2c3c(sc2n1)COC(C)(C)C3
  -1.4, i
- CS(=O)(=O)NNC(=O)c1sccc1OCc1ncc(C(F)(F)F)cc1Cl
  2.7, i
- CCn1cc(/C=N\NC(=O)c2csc3ccccc23)c(C)n1
  2.1, i
- Cc1cc(N=Cc2c(O)n(-c3cccc(C(F)(F)F)c3)c(=O)c3ccccc23)no1
  -0.11, i
- c1csc(-n2nc3ccccc3n2)c1
  0.01, i

More structures follow:
Each structure is followed by: KCNQ2 inh baseline, KCNQ2 inh
- Clc1cccc(-c2nc(NCCN3CCOCC3)c3ccccc3n2)c1
  0.08, i
- COCCn1c(SCc2ccc(F)cc2)nc2ccccc2c1=O
  -1.3, i
- O=C(CN1C(=O)c2ccccc2S1(=O)=O)Nc1ccc(S(=O)(=O)Nc2ncccn2)cc1
  0.54, i
- CC(C)CCC(CC(C)O)C(=O)NNC(=S)Nc1ccccc1 (configuration not stated)
  -0.28, i
- COc1ccc(-c2nnc(NC(=O)c3ccco3)s2)cc1
  1.3, i
- Cc1ccc(S(C)(=O)=NS(=O)(=O)c2cccc3nsnc23)cc1 (configuration not stated)
  0.61, i
- Cc1cc(NC(=O)CCC(=O)N(Cc2ccco2)C2(C(=O)NC3CCCCC3)CCCCC2)no1
  -0.64, i
- CC(=O)c1cc(-c2ccccc2)n(CCC(=O)NC2CCCCCCC2)c1C
  0.01, i
- COc1cc(OC)c(OC)cc1NC(=O)CC1COc2ccccc2O1 (configuration not stated)
  -0.66, i
- O=C(Nc1cccc(Cl)c1)N1CCCC1
  -0.57, i

The list goes on.
Each structure is followed by: KCNQ2 inh baseline, KCNQ2 inh
- CC(C)(C)c1ccc(C(=O)N2CCN(CCNC(=O)C(=O)NCc3ccc(Cl)cc3)CC2)cc1
  -0.58, i
- Cc1nc(CNS(=O)(=O)c2ccc(F)cc2)cs1
  -2.4, i
- C=CCN(Cc1nc(-c2ccccc2)no1)C(=O)c1ccco1
  0.03, i
- CCC(C)C(=O)Nc1nnc(SCC(=O)Nc2ccc(F)cc2)s1 (configuration not stated)
  1.7, i
- COc1ccc(Nc2cc(C)nc(-n3nc(C)cc3C)n2)cc1
  -0.01, i
- O=C(OCc1csc(-c2ccccc2)n1)c1cccs1
  -0.72, i
- CCOC(=O)CC(=O)CSc1nc2c(cc1C#N)CCC2
  1.7, i
- O=C(C/C=N/OCc1c(Cl)cccc1Cl)c1ccccc1
  -0.47, i
- COC(=O)c1cc2ccc(OC)c(OC)c2c(=O)s1
  0.87, i
- COc1ccc(-c2ccc(-c3noc(-c4cccc(OC)c4)n3)c(OC)n2)cc1
  0.24, i

Following part.
Each structure is followed by: KCNQ2 inh baseline, KCNQ2 inh
- Cc1ccc(NC(=O)C(Nc2cccc(C)c2)c2ccccc2)cc1 (configuration not stated)
  -0.92*, -7.4*
- CCOc1ccc(Cn2nnc(C(=O)NCc3ccccc3)c2N)cc1
  1.4, i
- COC(=O)c1ccc(N2CCOCC2)c(NC(=O)c2ccco2)c1
  0.1, i
- CSC1=N/C(=C\c2ccc(Cl)cc2)C(=O)N1N(C)C
  2.7, i
- O=C1N(Cc2cccnc2)C[C@@H]2C[C@@H](c3cccc(C(F)(F)F)c3)N3CCC[C@@]123
  -1.5, i
- N=C1/C(=C\c2ccc(-c3ccc(C(=O)O)cc3)o2)C(=O)N=C2SC=C(c3ccccc3)N12
  2.2, i
- CCc1ccc2nc3nc(C)cc(C)c3c(N)c2c1
  0.16, i
- Cc1ccc(NC(=O)CNS(=O)(=O)c2ccc(F)cc2)cc1C
  -1.4, i
- Cc1ccnc(NC(=O)CNC(=O)c2sc3ccccc3c2Cl)c1
  -1.9, i
- COCCn1c(=NC(=O)C(C)(C)C)sc2cc([N+](=O)[O-])ccc21
  -0.7, i

Grouped by structure: the compounds so far with an aryl methoxy group (six)
Each structure is followed by: KCNQ2 inh baseline, KCNQ2 inh
- COc1cc(C(=O)Nc2nncs2)cc(OC)c1OC
  0.06, i
- COc1ccc(-c2nnc(NC(=O)c3ccco3)s2)cc1
  1.3, i
- COc1cc(OC)c(OC)cc1NC(=O)CC1COc2ccccc2O1 (configuration not stated)
  -0.66, i
- COc1ccc(Nc2cc(C)nc(-n3nc(C)cc3C)n2)cc1
  -0.01, i
- COC(=O)c1cc2ccc(OC)c(OC)c2c(=O)s1
  0.87, i
- COc1ccc(-c2ccc(-c3noc(-c4cccc(OC)c4)n3)c(OC)n2)cc1
  0.24, i

Carrying on:
Each structure is followed by: KCNQ2 inh baseline, KCNQ2 inh
- CCOc1ccc2nc(NCCO)[nH]c2c1
  -1, i
- O=C(Nc1ccccc1C(=O)N1CCCCC1)c1cc(F)c(F)cc1Cl
  -1.2, i
- CC(C)CCN1NC2(CCC(C)CC2)NC1=S (configuration not stated)
  -0.32, i
- COc1ccc(OC(C)C(=O)N(C)Cc2nc(-c3ccc(OC)cc3)no2)cc1 (configuration not stated)
  1.4, i
- O=C(OCc1cc(Cl)ccc1OC(F)F)c1ccc([N+](=O)[O-])o1
  -0.36, i
- COC(=O)c1ccc(NC(=O)C[n+]2ccccc2)cc1
  0.83, i
- CCC(C)C(NC(=O)C1CCC(C)CC1)C(=O)NCc1ccccn1 (configuration not stated)
  -0.76, i
- O=C(CN1CCC(C(=O)c2ccc(F)cc2)CC1)Nc1ccc(F)cc1
  0.28, i
- CC(=O)Oc1ccc(-c2cccc(C(=O)N(C)c3ccc(O)cc3)c2)cc1
  -0.02, i
- Cc1c(Cc2ccccc2)sc(/N=C/c2c(O)ccc3ccccc23)c1C(N)=O
  1.1, i

Next part
Each structure is followed by: KCNQ2 inh baseline, KCNQ2 inh
- O=C(OCCNC(=O)c1ccc2ccccc2n1)c1ccc(F)cc1
  0.03*, -7.3*
- CC1CCN(C(=O)c2ccc(NC(=O)c3ccccc3)cc2)CC1
  -1.1, i
- Cc1cc(-c2n[nH]c(=S)n2/N=C/c2ccc(C)s2)n[nH]1
  -1.3, i
- NS(=O)(=O)c1ccc(CNS(=O)(=O)c2cc(C(=O)O)ccc2Cl)cc1
  -1.4, i
- CCCN(c1ccc(OCC)cc1)S(=O)(=O)c1ccc2c(c1)CCN2C(=O)CCC(=O)O
  -1.7, i
- Cc1ccc(CC(=O)Nc2cccc(S(=O)(=O)N3CCOCC3)c2)cc1
  0.77, i
- CNC(=O)C1C2C=CC3(O2)C1C(=O)N(CCOC)C3C(=O)NCc1ccc(OC)cc1 (configuration not stated)
  0.07, i
- CCC(C)Sc1nnc(NC(=O)C2CCN(C(=O)c3ccco3)CC2)s1 (configuration not stated)
  -1.3, i
- CCCc1n(CC(O)COC2CCCCC2)c2ccccc2[n+]1C (configuration not stated)
  -0.03, i
- C=CCOc1ccc(/C=N/NC(=O)CC(=O)NC2CCCCC2)cc1
  0.24, i

(next part)
Each structure is followed by: KCNQ2 inh baseline, KCNQ2 inh
- Cc1cccc(C)c1OCC(=O)Nc1ccccc1N1CCCCC1
  2.9, i
- Cc1csc(=Nc2ccccc2)n1C
  -0.21, i
- Cc1ccc2[nH]c3c(=O)n(CC(=O)NCCCN4CCN(c5ccc(F)cc5)CC4)ncc3c2c1
  -0.69, i
- Fc1ccc(CN(Cc2ccccc2)C(c2cccs2)c2nnnn2C2CCCCC2)cc1 (configuration not stated)
  0.94, i
- O=C1N(C2CCCC2)C[C@@H]2C[C@@H](c3cccn3-c3nccs3)N3CCC[C@@]123
  -0.49, i
- O=c1[nH]c(=S)[nH]nc1Cc1ccc(Cl)c(Cl)c1
  0.25, i
- Fc1ccc(C2CC(c3ccco3)=Nc3ccccc3S2)cc1 (configuration not stated)
  -1, i
- CC(=O)Nc1ccc(CN2CCN(CC(C)C)C(CCO)C2)cc1 (configuration not stated)
  -0.12, i
- O=C(N/N=C/c1ccc([N+](=O)[O-])cc1)c1cnccn1
  1.5, i
- CSc1ccc(/C=C/C(=O)NC23CC4CC(CC(C4)C2)C3)cc1
  0.08, i

(further entries)
Each structure is followed by: KCNQ2 inh baseline, KCNQ2 inh
- CCC(=O)N1CCc2cc(Br)cc(S(=O)(=O)C3(C(=O)OC)CC3)c21
  -0.58, i
- c1ccc(Cn2nnc3c(NCc4ccc5c(c4)OCO5)ncnc32)cc1
  -0.42, i
- COC(=O)c1ccccc1NC(=O)CSc1nnc(Cc2ccc(Cl)cc2)o1
  1.8, i
- COc1ccc(CCC(=O)Nc2cnc3ccccc3c2)cc1
  1.3, i
- COC(=O)c1cc(COC(=O)c2nc3nc(C)cc(C)n3n2)oc1C
  -0.06, i
- O=C(C1=C[C@H](C2CC2)C[C@H](OCc2ccc(CO)cc2)O1)N1CCN(Cc2ccccc2)CC1
  0.12, i
- Cc1ccc(C(=O)C(C)Sc2nnc(N)s2)cc1 (configuration not stated)
  0.21, i
- CCC(=O)N1CCC2(CC1)Oc1ccc(F)cc1C(=O)C21CC(c2ccc(Cl)cc2)=NO1 (configuration not stated)
  -0.91, i
- CN1CCN(c2ccc(Cl)cc2NC(=O)c2ccc(S(=O)(=O)N(C)C)cc2)CC1
  0.89, i
- OCCNCc1cc(Br)ccc1OCc1ccc(F)cc1
  -0.28, i

Additional records.
Each structure is followed by: KCNQ2 inh baseline, KCNQ2 inh
- CN(C)CC(C)(C)CNC(=O)C1CCN(CCCc2ccccc2)CC1
  1.8, i
- O=C(NN1C(=O)c2ccccc2NC1c1ccco1)c1ccc(Br)cc1 (configuration not stated)
  2.3, i
- CCOCc1c(C(=O)OCC(=O)/C(C#N)=C(\C)N)oc2ccccc12
  -0.63, i
- CC(=O)Nc1ccc(-n2c(C)ccc2-c2ccccc2)cc1
  1.7, i
- CCc1ccc(OC)c(S(=O)(=O)Nc2ccc(Cc3ccncc3)cc2)c1
  0.84, i
- COC(=O)C1CCN(S(=O)(=O)c2ccc(NC(C)=O)cc2)CC1
  -0.27, i
- Cc1c(NC(=O)COC(=O)c2ccc(Br)o2)c(=O)n(-c2ccccc2)n1C
  0.55, i
- CCOc1ccc(NC(=O)COC(=O)C2C3CC4OC(=O)C2C4C3)cc1 (configuration not stated)
  -1.3, i
- CCOC(=O)c1c(C)n(C)c2cc(Br)c(C(=O)OC)cc12
  0.41, i
- COc1ccc(/C=C(\C#N)C(=O)c2c(C)[nH]c3ccccc23)cc1OC
  -0.36, i

Record cards, as listed above. Order of values: KCNQ2 inh baseline, KCNQ2 inh
CN(C)CC(C)(C)CNC(=O)C1CCN(CCCc2ccccc2)CC1 in the list: 1.8, i
COc1ccc(/C=C(\C#N)C(=O)c2c(C)[nH]c3ccccc23)cc1OC in the list: -0.36, i

Going on with the list.
Each structure is followed by: KCNQ2 inh baseline, KCNQ2 inh
- COc1ccccc1NC(=O)c1csc2c1CCC(C)C2 (configuration not stated)
  1.8, i
- Cc1sc(NC(=O)c2cc(-c3ccccc3)nc3ccccc23)c(C(N)=O)c1C
  -1, i
- O=C(CSc1ncn[nH]1)N1N=C2/C(=C/c3ccccc3)CCCC2C1c1ccccc1 (configuration not stated)
  0.97*, -5.7*
- O=C(Nc1ccc(F)cc1)Nc1ccc2c(c1)OCO2
  0.9, i
- CCOC(CNC(=O)c1cc(C)nn1-c1ccccc1)OCC
  -0.62, i
- Cc1nn(-c2ccccc2)c2ncc(C(=O)c3cc(Cl)ccc3O)cc12
  -0.17, i
- CCc1ccc(N=C2NC(=O)/C(=C/c3cc(Br)c(OCC(=O)O)c(OC)c3)S2)cc1
  -0.01, i
- COCCCNC(=O)Cn1cc(C(=O)c2cccs2)c2ccccc21
  -0.35, i
- Cc1onc(-c2c(F)cccc2Cl)c1C(=O)OCN1C(=O)c2ccccc2C1=O
  -1.6, i
- Cc1csc(NC(=O)c2ccncc2)n1
  -0.13, i

(cont.)
Each structure is followed by: KCNQ2 inh baseline, KCNQ2 inh
- O=c1cc(O)nc2n1CCCS2
  -0.01, i
- CC1(C)NC(C(=O)O)Cc2c1[nH]c1ccccc21 (configuration not stated)
  0.83, i
- COc1cc(C(=O)Nc2ccccc2N2CCN(S(C)(=O)=O)CC2)cc(OC)c1OC
  2, i
- O=C(OCC(=O)N(CCc1ccccc1)Cc1ccccc1)c1cccc(O)c1
  0.9, i
- O=C(NC1c2ccccc2-c2ccccc21)N1CCOCC1
  0.22*, -7*
- N=c1c2ccccc2nnn1-c1ccc(C(F)(F)F)cc1
  0.14, i
- Nc1cc([N+](=O)[O-])cc2oc(-c3ccccc3)cc12
  1.4, i
- N/C(Cc1cccs1)=N\OC(=O)COc1ccc(Cl)cc1Cl
  -1.2, i
- O=C(CN1CCN(c2ncc(C(F)(F)F)cc2Cl)CC1)N1CCN(c2ncc(C(F)(F)F)cc2Cl)CC1
  0.06, i
- O=C(Nc1ccc(Cl)cc1F)C1CC1
  0.61, i

Following part.
Each structure is followed by: KCNQ2 inh baseline, KCNQ2 inh
- CCCN1CCC(NC(=O)Nc2ccc([N+](=O)[O-])cc2)CC1
  1.9, i
- Cc1oc2c(c1C(=O)NC(Cc1c[nH]c3ccccc13)C(=O)O)CCCC2 (configuration not stated)
  -1.6, i
- CCOc1ccc(NC(=O)Cn2cc(C(=O)C3CC3)c3ccccc32)cc1
  0.77, i
- CC(=O)c1ccc(Oc2cc(C)nc(NCc3ccccc3)n2)cc1
  0.34, i
- COc1cc(NC(=O)C2CCCN(S(=O)(=O)c3ccc4[nH]c(=O)ccc4c3)C2)cc(OC)c1 (configuration not stated)
  -3.6, i
- CC(C)(C)OC(=O)CNC(=O)c1[nH]cnc1C(=O)N[C@@H](CCCCNC(=O)OC(C)(C)C)C(=O)OC(C)(C)C
  -0.79, i
- N#Cc1cc2c(nc1SCC(O)CS(=O)(=O)Cc1ccc(Cl)cc1)CCCC2 (configuration not stated)
  0.07, i
- C=CCn1c(C)csc1=Nc1ccc(C(C)=O)cc1
  -0.12, i
- COc1ccccc1-n1nc(C(=O)O)c2ccccc2c1=O
  0.78, i
